Screening data from PubChem.
STAT3 binder: binds human STAT3 on microarray; P40763; 0.2% of 17,000 active; Small molecule microarray, His-STAT3 binding, anti-His fluorescence; calls only;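 active = compounds whose four printed spots each show fluorescence over background unusually high for their array block, chance value under 7%; compounds were printed on slides so no solution concentration is given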;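 also: about 2 pmol printed per array spot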
Target sequence (P40763 whole entry, looked up): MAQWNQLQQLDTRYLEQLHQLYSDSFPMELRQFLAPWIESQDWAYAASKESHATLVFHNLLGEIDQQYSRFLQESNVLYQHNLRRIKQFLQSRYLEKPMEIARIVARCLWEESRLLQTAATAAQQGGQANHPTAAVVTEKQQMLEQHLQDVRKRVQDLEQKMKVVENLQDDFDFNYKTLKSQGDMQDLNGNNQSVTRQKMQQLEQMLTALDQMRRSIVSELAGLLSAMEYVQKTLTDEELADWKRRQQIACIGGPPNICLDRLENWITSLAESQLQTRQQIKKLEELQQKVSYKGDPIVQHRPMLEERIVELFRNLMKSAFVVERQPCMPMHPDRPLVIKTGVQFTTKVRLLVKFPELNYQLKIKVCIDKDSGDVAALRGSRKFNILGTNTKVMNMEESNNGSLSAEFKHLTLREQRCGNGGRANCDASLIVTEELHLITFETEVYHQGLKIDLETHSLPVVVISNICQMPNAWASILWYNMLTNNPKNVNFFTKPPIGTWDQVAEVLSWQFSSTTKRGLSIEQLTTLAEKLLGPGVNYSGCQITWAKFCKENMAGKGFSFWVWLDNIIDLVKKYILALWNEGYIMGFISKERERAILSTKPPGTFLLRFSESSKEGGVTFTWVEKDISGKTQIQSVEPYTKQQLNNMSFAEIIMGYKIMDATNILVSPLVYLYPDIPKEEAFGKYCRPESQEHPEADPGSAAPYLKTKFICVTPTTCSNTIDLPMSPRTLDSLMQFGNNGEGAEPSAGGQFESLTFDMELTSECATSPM
c-Myc SMM: binders of human c-Myc | calls only | P01106 | small molecule microarray, His-c-Myc binding, anti-His fluorescence | 1.5% of 17,000 active;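 active = spot fluorescence over background with P-value below 7% in all four replicate spots, showing protein binding; compounds were printed on slides so no solution concentration is given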;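 also: score is binary with 100 for all four spots passing and 0 otherwise; about 2 pmol printed per array spot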
mut p53 SMM: mutant p53 (human) binding; small molecule microarray binding, anti-GST fluorescence; calls only; 0.4% of 17,000 active;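 active = compounds whose four printed spots each glow above background more than chance allows, each with a p-value under 7%; compounds were printed on slides so no solution concentration is given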;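 also: about 2 pmol printed per array spot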
ID4 binder: binds human ID4 protein on microarray; small molecule microarray, Flag-ID4 binding, fluorescence F/B; calls only; 1.2% of 31,000 active; AID 624137;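 active = spot signal over background at p below 0.07 in all four prints; compounds were printed on slides so no solution concentration is given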;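 also: a binder raises fluorescence above local background on the spot; about 2 pmol printed per array spot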
Target sequence (P47928 whole entry, looked up): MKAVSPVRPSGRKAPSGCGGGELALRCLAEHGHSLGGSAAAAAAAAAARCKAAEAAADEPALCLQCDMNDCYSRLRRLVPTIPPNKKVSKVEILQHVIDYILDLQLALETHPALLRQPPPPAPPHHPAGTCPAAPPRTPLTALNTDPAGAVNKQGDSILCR
Calls only; i = inactive; / = not tested or not shown; + = active, no number. Only part of the results is shown; the hit share may differ from the screen's.

SMILES	STAT3 binder	c-Myc SMM	mut p53 SMM	ID4 binder
O=C1N[C@@H](Cc2ccccc2)C(=O)N2[C@@H]1C[C@@H](C(=O)NCc1ccc(F)cc1)[C@H]2c1cccc(OCCO)c1	i	i	i	/
C[C@H](CO)N1C[C@H](C)[C@H](CN(C)C(=O)Nc2ccc(C(C)(C)C)cc2)OCc2cnnn2CCCC1=O	i	i	i	i
O=C(CSc1nnc(-c2ccncc2)n1-c1ccccc1)Nc1ccc(C(=O)O)cc1	i	i	i	i
CC(=O)O[C@@H]1[C@@H](O)[C@H](C)O[C@@H](Oc2c(-c3ccc(O)cc3)oc3cc(O[C@@H]4O[C@@H](C)[C@H](O)[C@@H](O)[C@H]4O)cc(O)c3c2=O)[C@@H]1O	i	i	i	i
CC(C)NC(=O)N(C)C[C@@H]1OCCCC[C@H](C)Oc2ccc(NC(=O)Nc3ccc(C(F)(F)F)cc3)cc2C(=O)N([C@@H](C)CO)C[C@@H]1C	i	+	i	i
C[C@@H]1CN([C@H](C)CO)C(=O)Cc2cc(NC(=O)CCN3CCOCC3)ccc2O[C@@H]1CN(C)S(=O)(=O)c1cccs1	i	i	i	i
C[C@@H]1CN([C@@H](C)CO)C(=O)c2cc(NC(=O)Cc3ccccc3)ccc2O[C@@H]1CN(C)CC1CC1	i	i	i	i
C[C@@H]1CN([C@H](C)CO)C(=O)Cc2cc(NC(=O)CCN3CCOCC3)ccc2O[C@H]1CN(C)S(=O)(=O)c1cccs1	i	i	i	i
OCCN1CCN(CC(O)COc2ccc3c(c2)CCC3)CC1 (stereo unspecified)	i	i	i	i
Cc1noc(C)c1NC(=O)N(C)C[C@H]1OCCCC[C@@H](C)Oc2ccc(NS(=O)(=O)c3cn(C)cn3)cc2C(=O)N([C@@H](C)CO)C[C@@H]1C	i	i	i	i
C[C@@H]1CN([C@@H](C)CO)C(=O)c2cc(NC(=O)Nc3ccc(F)cc3)ccc2O[C@@H](C)CCCCO[C@@H]1CN(C)C(=O)Cc1ccccc1	i	i	i	i
CC(=O)c1c(C)nn(CC(O)COc2ccc3c(c2)CCC3)c1C (stereo unspecified)	i	i	i	i
c1ccc(-c2nnc(OCc3cccnc3)c3ccccc23)cc1	i	i	i	i
CC1CCC2(C)C(C(=O)O)=CCCC2C1(C)CCC1=CC(O)OC1=O (stereo unspecified)	i	i	i	i
Cc1cc2c([nH]c3ccccc32)c2c1OC(C)(C)C=C2	i	i	i	/
C[C@H]1CN([C@@H](C)CO)C(=O)Cc2cc(NC(=O)c3ccncc3)ccc2O[C@@H]1CN(C)CC1CC1	i	i	i	i
CNC[C@@H]1OCCCC[C@H](C)Oc2ccc(NC(=O)Nc3ccc(F)cc3)cc2C(=O)N([C@H](C)CO)C[C@H]1C	i	i	i	/
Cc1nn(-c2ccccc2)c(CC(C)(C)C(=O)O)c1C(=O)O	i	i	i	i
C[C@@H]1CN([C@H](C)CO)C(=O)c2cc(NS(C)(=O)=O)ccc2O[C@@H](C)CCCCO[C@@H]1CN(C)C	i	i	i	i
Cc1ncc([N+](=O)[O-])n1CC(C)O (stereo unspecified)	i	i	i	i
C[C@H]1CN([C@@H](C)CO)C(=O)c2cccc(NS(=O)(=O)c3cccs3)c2O[C@H]1CN(C)C(=O)Nc1ccc(C(F)(F)F)cc1	i	i	i	i
C[C@H](CO)N1C[C@H](C)[C@@H](CN(C)CC2CCCCC2)Oc2ccc(N(C)C)cc2C1=O	i	i	i	i
C[C@H]1CN([C@@H](C)CO)C(=O)c2cccc(NC(=O)NC3CCCCC3)c2O[C@@H]1CN(C)S(=O)(=O)c1cn(C)cn1	i	i	i	i
CC(C)(C)C(=O)Nc1ccc2c(c1)C(=O)C(=O)c1ccccc1-2	i	i	i	/
Cc1noc(C)c1S(=O)(=O)N(C)C[C@@H]1Oc2c(NC(=O)c3ccc(-c4nccs4)cc3)cccc2C(=O)N([C@@H](C)CO)C[C@H]1C	i	i	i	i
C[C@H]1CN([C@@H](C)CO)C(=O)CCCn2cc(nn2)CO[C@H]1CN(C)C(=O)Nc1ccnc(N2CCOCC2)c1	i	i	i	i
COc1ccc(S(=O)(=O)N(C)C[C@@H]2Oc3ccc(NC(=O)CCN4CCOCC4)cc3C(=O)N([C@@H](C)CO)C[C@H]2C)cc1	i	i	i	i
C[C@@H]1CN([C@H](C)CO)C(=O)c2cccc(NS(=O)(=O)c3ccccc3)c2O[C@@H]1CN(C)C(=O)Nc1ccccc1	i	i	i	i
CN(Cc1nc2ccccc2n1C)S(=O)(=O)c1ccc(F)cc1	i	i	i	i
C[C@@H]1CN([C@@H](C)CO)C(=O)c2cc(NC(=O)CCC(F)(F)F)ccc2O[C@H]1CN(C)C	i	i	i	i
CC(C)NC(=O)N(C)C[C@H]1Oc2ccc(NS(=O)(=O)c3cccs3)cc2CC(=O)N([C@@H](C)CO)C[C@H]1C	i	i	i	i
CC(C)NC(=O)N(C)C[C@H]1OCCCC[C@@H](C)Oc2ccc(NC(=O)CCC(F)(F)F)cc2C(=O)N([C@@H](C)CO)C[C@@H]1C	i	i	i	i
Cc1c(-n2c(/C=C\c3ccc([N+](=O)[O-])o3)nc3ccccc3c2=O)c(=O)n(-c2ccccc2)n1C	i	i	i	i
C[C@H]1CN([C@@H](C)CO)C(=O)c2cc(NC(=O)NC3CCCCC3)ccc2O[C@H]1CN(C)C(=O)Nc1ccc2c(c1)OCO2	i	i	i	i
C[C@H]1CN([C@@H](C)CO)C(=O)Cc2cc(NC(=O)NC3CCCCC3)ccc2O[C@H]1CN(C)S(=O)(=O)c1cccs1	i	i	i	i
CCn1c(SCC(=O)N2CCOCC2)nnc1-c1c[nH]c2ccccc12	i	i	i	i
CCO[C@H]1OC(C(=O)NCc2ccccc2)=C[C@@H](C(C)(C)C)[C@@H]1CCCO	i	i	i	i
C[C@H]1CN([C@@H](C)CO)C(=O)Cc2cc(NS(C)(=O)=O)ccc2O[C@H]1CN(C)C(=O)Nc1ccc(C(F)(F)F)cc1	i	i	i	i
C[C@H]1CN([C@@H](C)CO)C(=O)CCCn2cc(nn2)CO[C@H]1CN(C)Cc1ccccc1	i	i	i	i
C[C@@H]1CN([C@H](C)CO)C(=O)Cc2cc(NC(=O)c3ccncc3)ccc2O[C@@H]1CN(C)S(=O)(=O)c1ccccc1	i	i	i	i
O=C(Nc1cccc(Cl)c1)c1ccc(NCc2ccco2)c([N+](=O)[O-])c1	i	i	i	i
NC(=O)CSCC(=O)Nc1ccccc1F	i	i	i	i
C[C@@H]1CN([C@H](C)CO)C(=O)CCCn2cc(nn2)CO[C@@H]1CN(C)C(=O)Nc1ccccc1F	i	i	i	i
C[C@@H]1CN([C@@H](C)CO)C(=O)c2cccc(NS(=O)(=O)c3cn(C)cn3)c2O[C@@H]1CN(C)S(=O)(=O)c1ccc(Cl)cc1	i	i	i	/
C[C@@H]1CCCCO[C@@H](CN(C)CC2CCCCC2)[C@H](C)CN([C@H](C)CO)C(=O)c2cc(NC(=O)Nc3ccc4c(c3)OCO4)ccc2O1	i	i	i	/
C[C@H]1CN([C@@H](C)CO)C(=O)Cc2cc(NS(=O)(=O)c3cccs3)ccc2O[C@@H]1CN(C)C(=O)Nc1ccc2c(c1)OCO2	i	i	i	i
CCCCN1CCCC1CNC(=O)c1cc(C#N)c2ccccc2c1OC (stereo unspecified)	i	i	i	/
C[C@H]1CN([C@@H](C)CO)C(=O)c2cc(NC(=O)Cn3cnnn3)ccc2O[C@H]1CN(C)Cc1ccncc1	i	i	i	i
C[C@H](CO)N1C[C@H](C)[C@H](CN(C)S(=O)(=O)c2cccs2)Oc2ccc(NC(=O)Nc3ccc(F)cc3)cc2CC1=O	i	i	i	i
C[C@@H]1CN([C@H](C)CO)C(=O)c2cccc(NC(=O)C3CCOCC3)c2O[C@H]1CN(C)S(=O)(=O)c1ccc(Cl)cc1	i	i	i	i
COc1ccc(CN(C)C[C@H]2Oc3c(NC(=O)NC4CCCCC4)cccc3C(=O)N([C@H](C)CO)C[C@@H]2C)cc1	i	i	i	i
C[C@H](CO)N1C[C@H](C)[C@H](CN(C)S(=O)(=O)c2cn(C)cn2)Oc2c(NC(=O)c3ccncc3)cccc2C1=O	i	i	i	i
COc1ccc(NC(=O)Nc2cccc3c2O[C@H](CN(C)S(=O)(=O)c2ccc(OC)cc2)[C@@H](C)CN([C@@H](C)CO)C3=O)cc1	i	i	i	i
CNC[C@H]1Oc2c(NC(=O)NC3CCCCC3)cccc2C(=O)N([C@@H](C)CO)C[C@@H]1C	i	i	i	i
C[C@@H]1O[C@@H](O[C@H]2[C@H](O[C@H]3CC[C@@]4(C)C(CC[C@]5(C)C4CC=C4C6CC(C)(C)CC[C@]6(C(=O)O[C@@H]6O[C@H](CO[C@@H]7O[C@H](CO)[C@@H](O[C@@H]8O[C@@H](C)[C@H](O)[C@@H](O)[C@H]8O)[C@H](O)[C@H]7O)[C@@H](O)[C@H](O)[C@H]6O)CC[C@]45C)[C@]3(C)CO)OC[C@H](O)[C@@H]2O)[C@H](O)[C@H](O)[C@H]1O (stereo partly specified)	i	i	i	i
CCO[C@H]1OC(C(=O)NCc2ccccc2)=C[C@@H](c2ccc3c(c2)OCO3)[C@@H]1CCCO	i	i	i	/
C[C@@H]1CN([C@H](C)CO)C(=O)c2cc(NC(=O)c3ccncc3)ccc2O[C@H]1CN(C)S(=O)(=O)c1cccs1	i	i	i	i
C[C@@H]1CN([C@H](C)CO)C(=O)c2cc(NS(C)(=O)=O)ccc2O[C@@H](C)CCCCO[C@@H]1CN(C)C(=O)c1ccccc1	i	i	i	i
Cc1ccc(NC(=O)c2sc3ncn(CC(=O)Nc4cc(C(F)(F)F)ccc4Cl)c(=O)c3c2C)c(C)c1	i	i	i	i
C[C@@H]1CN([C@@H](C)CO)C(=O)Cc2cc(NS(C)(=O)=O)ccc2O[C@@H]1CN(C)Cc1ccc(C(F)(F)F)cc1	i	i	i	i
New compounds follow:
SMILES	STAT3 binder	c-Myc SMM	mut p53 SMM	ID4 binder
CCOc1ccc(N(Cc2cc3ccc(C)cc3[nH]c2=O)S(C)(=O)=O)cc1	i	i	i	i
CCOC(=O)c1c(NC(=O)Cc2cccc(OC)c2)sc2c1CCCC2	i	i	i	i
CC(=O)Oc1ccc(NC(=O)COc2ccccc2)c(C(=O)O)c1	i	i	i	i
CCCCCCCC/C=C/CCCCCCCC(=O)NCCO	i	i	i	i
COc1ccc(S(=O)(=O)N(C)C[C@H]2Oc3ccc(NS(=O)(=O)c4ccc(Cl)cc4)cc3C(=O)N([C@H](C)CO)C[C@H]2C)cc1	i	i	i	i
COc1ccc(COCC23N=C4SCCCN4[C@H](c4ccccc4O2)[C@H]3CO)cc1	i	i	i	i
COc1ccc(S(=O)(=O)NC2CCN(Cc3ccc(OCCO)cc3)CC2)cc1	i	i	i	i
C[C@H]1CN([C@@H](C)CO)C(=O)Cc2cc(NS(=O)(=O)c3cn(C)cn3)ccc2O[C@@H]1CN(C)CC1CC1	i	i	i	i
C[C@H]1CN([C@@H](C)CO)C(=O)c2cccc(NS(=O)(=O)c3ccc(Cl)cc3)c2O[C@@H]1CN(C)S(=O)(=O)c1cn(C)cn1	i	i	i	i
COC(=O)[C@]1(Cc2ccccc2N=[N+]=[N-])N=C(c2ccc(OCCCO)cc2)O[C@@H]1c1ccccc1CN=[N+]=[N-]	i	i	i	/
COc1ccc(NC(=O)N(C)C[C@H]2Oc3ccc(NC(=O)C4CCCCC4)cc3CC(=O)N([C@@H](C)CO)C[C@H]2C)cc1	i	i	i	/
Cc1noc(C)c1S(=O)(=O)N(C)C[C@H]1Oc2ccc(NC(=O)Cc3cn(C)c4ccccc34)cc2CC(=O)N([C@@H](C)CO)C[C@H]1C	i	i	i	i
C[C@H](CO)N1C[C@H](C)[C@H](CN(C)C(=O)Nc2cccc3ccccc23)Oc2ncc(C#Cc3ccccc3)cc2C1=O	i	i	i	i
C[C@@H]1CCCCO[C@H](CN(C)C(=O)C2CCCCC2)[C@H](C)CN([C@H](C)CO)C(=O)c2cc(NC(=O)Nc3ccccc3)ccc2O1	i	i	i	i
COc1ccc(S(=O)(=O)N(C)C[C@H]2Oc3ccc(NC(=O)Nc4cccc5ccccc45)cc3CC(=O)N([C@@H](C)CO)C[C@@H]2C)cc1	i	i	i	i
COC(=O)C1=C(C)NC(C)=C(C(=O)OCCCN2CCC(c3ccccc3)(c3ccccc3)CC2)C1c1cccc([N+](=O)[O-])c1 (stereo unspecified)	i	i	i	/

An excerpt from above in order of SMILES length, high to low.
SMILES	STAT3 binder	c-Myc SMM	mut p53 SMM	ID4 binder
CC(C)NC(=O)N(C)C[C@@H]1OCCCC[C@H](C)Oc2ccc(NC(=O)Nc3ccc(C(F)(F)F)cc3)cc2C(=O)N([C@@H](C)CO)C[C@@H]1C	i	+	i	i
Cc1c(-n2c(/C=C\c3ccc([N+](=O)[O-])o3)nc3ccccc3c2=O)c(=O)n(-c2ccccc2)n1C	i	i	i	i
O=C(CSc1nnc(-c2ccncc2)n1-c1ccccc1)Nc1ccc(C(=O)O)cc1	i	i	i	i

Record cards (already shown). Values in the order: STAT3 binder	c-Myc SMM	mut p53 SMM	ID4 binder
COC(=O)C1=C(C)NC(C)=C(C(=O)OCCCN2CCC(c3ccccc3)(c3ccccc3)CC2)C1c1cccc([N+](=O)[O-])c1 (stereo unspecified) across the screens: i	i	i	/
COC(=O)[C@]1(Cc2ccccc2N=[N+]=[N-])N=C(c2ccc(OCCCO)cc2)O[C@@H]1c1ccccc1CN=[N+]=[N-] across the screens: i	i	i	/
C[C@@H]1CCCCO[C@H](CN(C)C(=O)C2CCCCC2)[C@H](C)CN([C@H](C)CO)C(=O)c2cc(NC(=O)Nc3ccccc3)ccc2O1 across the screens: i	i	i	i
